# KCNQ2 pot = potentiators of rat KCNQ2 potassium channel | Potassium voltage-gated channel subfamily KQT member 2 (Rattus norvegicus), O88943 | CHO-K1 KCNQ2, FluxOR thallium flux fluorescence; stronger effect = higher value | B-score at 10 µM | 310,000 tested, 0.54% active;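 active = fluorescence ratio B-score at least 3 SD of library B-scores, with initial fluorescence B-score within 3 SD, cut at about 5.3 in these data; same plate scores as AID 2156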;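 note: B-score of peak minus minimum over baseline fluorescence ratio after K+ and Tl+ stimulus; positive B-score means potentiation of KCNQ2 with more thallium influx and brighter signal; only the inactives scoring about 0 or higher are listed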
# Target sequence (O88943 whole entry, looked up): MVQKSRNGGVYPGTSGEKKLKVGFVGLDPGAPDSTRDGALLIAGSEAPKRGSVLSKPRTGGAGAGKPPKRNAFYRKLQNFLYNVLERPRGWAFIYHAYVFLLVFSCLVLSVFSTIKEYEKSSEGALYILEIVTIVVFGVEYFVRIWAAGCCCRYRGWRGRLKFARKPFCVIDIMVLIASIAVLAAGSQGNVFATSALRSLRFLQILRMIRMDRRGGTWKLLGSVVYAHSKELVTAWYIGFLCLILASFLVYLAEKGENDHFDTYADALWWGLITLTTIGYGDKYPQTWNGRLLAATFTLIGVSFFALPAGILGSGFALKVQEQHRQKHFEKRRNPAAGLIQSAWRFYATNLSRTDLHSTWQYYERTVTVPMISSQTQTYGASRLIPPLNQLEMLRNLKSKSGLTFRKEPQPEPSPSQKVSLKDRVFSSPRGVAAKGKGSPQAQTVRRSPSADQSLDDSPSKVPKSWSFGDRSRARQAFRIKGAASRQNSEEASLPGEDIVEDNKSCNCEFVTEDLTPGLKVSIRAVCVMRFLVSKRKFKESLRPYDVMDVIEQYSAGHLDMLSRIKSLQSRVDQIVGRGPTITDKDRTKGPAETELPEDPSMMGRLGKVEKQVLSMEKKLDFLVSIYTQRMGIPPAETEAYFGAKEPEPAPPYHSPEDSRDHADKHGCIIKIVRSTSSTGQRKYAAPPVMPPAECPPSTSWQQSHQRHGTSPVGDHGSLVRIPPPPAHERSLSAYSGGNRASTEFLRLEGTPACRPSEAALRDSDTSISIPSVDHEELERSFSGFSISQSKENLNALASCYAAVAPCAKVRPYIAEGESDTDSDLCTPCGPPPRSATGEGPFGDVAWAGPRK
# KCNQ2 pot baseline = second read-out of KCNQ2 pot, no call of its own (marks repeat the call); B-score; compound at 10 µM; measured here: initial fluorescence intensity artifact check;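 brightness before thallium and not channel activity; 0 = typical well and far values either way flag optical interference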
# Active calls of the source: *. A portion of the library; count on the stated rates, not on these rows.
SMILES,KCNQ2 pot,KCNQ2 pot baseline
COc1ccc(NC(=O)CCNC(=O)Cn2cnc3sc4c(c3c2=O)CCCC4)cc1OC,0.25,0.06
Cc1ccc(NC(=S)N2CCN(C(=O)C3CCCO3)CC2)c(C)c1 (stereo not given),0.63,-0.09
C/C(=N\NC(=O)c1ccc(Br)cc1)c1cccc(NC(=O)c2cccnc2)c1,1.4,-1.4
O=C1CCC([N+](=O)[O-])C(c2ccccc2Cl)N1 (stereo not given),0.47,-0.23
Cc1cc(NC(=O)CCC(=O)N(CC2CCCO2)C(C(=O)NC2CCCC2)c2cccnc2)no1 (stereo not given),0.96,0.25
COc1ccccc1CN1C[C@@H]2C[C@@H](c3[nH]c4c(C)cccc4c3C)N3CCC[C@@]23C1=O,0.21,-0.73
CCOc1ccccc1N(CC(=O)NCCSCc1ccco1)S(=O)(=O)c1ccccc1,0.21,-0.3
CCc1cccc(N(C(=O)c2csnn2)C(C(=O)NC2CCCCC2)c2cccnc2)c1 (stereo not given),1,0.83
CC1CCc2sc(NC(=O)c3ccc(N4C(=O)CCC4=O)cc3)c(C(N)=O)c2C1 (stereo not given),1.2,1.2
N=C(N)N1CCc2ccccc2C1,1.4,-0.02
Cc1ccc(C(O)CCc2ccc(N)cc2)cc1 (stereo not given),0.01,0.04
COCCNc1nnc(SCC(=O)c2c[nH]c3ccccc23)s1,1.1,-0.78
CC(C)NS(=O)(=O)c1ccc(NC(=O)Cc2ccsc2)cc1,0.97,1.1
Cc1nc(=S)c2ccccc2[nH]1,1.1,-0.04
Cc1cc2ncn(CCOc3ccccc3)c2cc1C,0.03,0.11
O=C(O)C1CCCCC1C(=O)Nc1ccc(-c2ccccc2)cc1 (stereo not given),1.5,-0.77
O=C(O)COc1ccccc1/C=N/n1c(C2CCCCC2)n[nH]c1=S,0.32,-0.01
CC(C)(C)C1CCc2c(sc(NC(=O)c3cccs3)c2C(N)=O)C1 (stereo not given),1,-0.42
O=C(NNc1cccc(Cl)c1)c1cccnc1Oc1ccccc1,2.9,-0.03
Cc1ccc(C)c(NC(=O)CN(C)C(=O)c2cc3c(s2)CCCCC3)c1,0.69,-1.1
CCN(CC)c1ccc(C=C2C(=O)OC(c3ccccc3)OC2=O)cc1 (stereo not given),0.19,-0.5
Cn1c(SC2=CS(=O)(=O)c3ccccc32)nc2ccccc21,0.71,-1.9
Cc1ccc(N2C(=O)c3ccccc3C(C)(C)C2=O)cc1,0.05,-2.4
O=C(CCN1CCOCC1)Nc1c(-c2ccccc2)c2cc(Br)ccc2[nH]c1=O,2.9,0.42
CS(=O)(=O)n1nc(OC(=O)c2cccc3ccccc23)cc1N,4.6,-0.59
c1ccc2cc3[nH]c(CN4CCCCC4)nc3cc2c1,1.9,-0.52
CC(C)(C)c1ccc(S(=O)(=O)N2CCC(NC(=O)c3ccco3)CC2)cc1,1.8,-1
Cc1oc2c(c1C(=O)NCCCC(=O)O)CCCC2,0.81,0.09
CCN(CC)S(=O)(=O)c1ccc(N2CCN(c3cccc(OC)c3)CC2)c([N+](=O)[O-])c1,0.48,2.8
CCCCCCC(=O)N1CCN(c2cc3c(cc2F)c(=O)c(C(=O)O)cn3CC)CC1,1.7,-3.4
COc1cc(C2Nc3ccccc3C(=O)N2c2ccccc2)c(Br)cc1OCC(=O)O (stereo not given),2.5,-2.4
Cc1ccc(-n2c(SCC(=O)Nc3ccc4c5c(cccc35)CC4)nc(O)c(C)c2=O)cc1,7*,1*
Cc1ccc(NC(=O)CN2C(=O)C3C4C=CC(C4)C3C2=O)cc1S(=O)(=O)N(C)C (stereo not given),1.8,-0.35
CCOC(=O)N1CCN(c2c(N3CCN(c4cc(C)ccc4C)CC3)c(=O)c2=O)CC1,0.91,-0.17
CN(C)C(CNC(=O)c1cccc(S(=O)(=O)Nc2ccc(Br)cc2)c1)c1ccco1 (stereo not given),0.2,0.42
CC1(OC(=O)CCc2ccccc2)C(=O)C=C2C=C(c3ccsc3)OC=C2C1=O (stereo not given),0.04,0.01
CN1CCCN(c2ccc([N+](=O)[O-])cc2)CC1,0.17,-0.9
O=C(c1ccc(F)cc1F)N1CCN(c2n[nH]c(=O)[nH]c2=O)CC1,0.1,-0.62
CC(C)OC(=O)CCC(=O)Nc1ccc(F)cc1,1.2,-2.8
CC(NC(=O)CCl)c1ccccc1Br (stereo not given),0.55,0.3

# In a second layout: results already given
structure	KCNQ2 pot	KCNQ2 pot baseline
CCN(CC)c1ccc(C=C2C(=O)OC(c3ccccc3)OC2=O)cc1 (stereo not given)	0.19	-0.5
Cn1c(SC2=CS(=O)(=O)c3ccccc32)nc2ccccc21	0.71	-1.9
Cc1ccc(N2C(=O)c3ccccc3C(C)(C)C2=O)cc1	0.05	-2.4
O=C(CCN1CCOCC1)Nc1c(-c2ccccc2)c2cc(Br)ccc2[nH]c1=O	2.9	0.42
CS(=O)(=O)n1nc(OC(=O)c2cccc3ccccc23)cc1N	4.6	-0.59
c1ccc2cc3[nH]c(CN4CCCCC4)nc3cc2c1	1.9	-0.52
CC(C)(C)c1ccc(S(=O)(=O)N2CCC(NC(=O)c3ccco3)CC2)cc1	1.8	-1
Cc1oc2c(c1C(=O)NCCCC(=O)O)CCCC2	0.81	0.09
CCN(CC)S(=O)(=O)c1ccc(N2CCN(c3cccc(OC)c3)CC2)c([N+](=O)[O-])c1	0.48	2.8
CCCCCCC(=O)N1CCN(c2cc3c(cc2F)c(=O)c(C(=O)O)cn3CC)CC1	1.7	-3.4
COc1cc(C2Nc3ccccc3C(=O)N2c2ccccc2)c(Br)cc1OCC(=O)O (stereo not given)	2.5	-2.4
Cc1ccc(-n2c(SCC(=O)Nc3ccc4c5c(cccc35)CC4)nc(O)c(C)c2=O)cc1	7*	1*
Cc1ccc(NC(=O)CN2C(=O)C3C4C=CC(C4)C3C2=O)cc1S(=O)(=O)N(C)C (stereo not given)	1.8	-0.35
CCOC(=O)N1CCN(c2c(N3CCN(c4cc(C)ccc4C)CC3)c(=O)c2=O)CC1	0.91	-0.17
CN(C)C(CNC(=O)c1cccc(S(=O)(=O)Nc2ccc(Br)cc2)c1)c1ccco1 (stereo not given)	0.2	0.42
CC1(OC(=O)CCc2ccccc2)C(=O)C=C2C=C(c3ccsc3)OC=C2C1=O (stereo not given)	0.04	0.01
CN1CCCN(c2ccc([N+](=O)[O-])cc2)CC1	0.17	-0.9

# The list goes on:
SMILES,KCNQ2 pot,KCNQ2 pot baseline
O=C(Nc1nccs1)C1CCCN(S(=O)(=O)c2cccc3cccnc23)C1 (stereo not given),3.7,-2.1
COc1ccc(-n2nc(C(=O)NCC(=O)NCc3ccc(F)cc3)c3ccccc3c2=O)cc1,1.2,3.9
Cc1c(C(=O)NCc2ccc(S(N)(=O)=O)cc2)oc2ccc(Cl)cc12,0.02,-1.1
COc1ccc(C2C(C(=O)Nc3cc(C)on3)c3ccccc3C(=O)N2C)cc1 (stereo not given),0.01,-0.61
COc1cc(Br)c(CCNC(=O)c2ccco2)cc1OC,0.54,-1.4
Cc1cc(C)c2oc(C(=O)N(Cc3ccccc3)C3CCS(=O)(=O)C3)cc(=O)c2c1 (stereo not given),0.68,0.06
CCC(=O)Nc1cccc(NC(=O)c2ccccc2Cl)c1,2.6,0.8
COCCN(CCOC)S(=O)(=O)c1ccc(C(=O)NC2CCN(Cc3ccccc3)CC2)cc1,2,1.3
CC(C)C(NC(=O)OCc1ccccc1)C(=O)NCc1ccc(C(=O)O)cc1 (stereo not given),1.3,0.15
CCN=C1S/C(=C\c2ccc(OC)c(OCC)c2)C(=O)N1CC,1.6,0.23
CC1(C)CC2CC(C)(CN2CC(O)c2ccccc2)C1 (stereo not given),0.46,-0.85
CC(C)(C)CC(=O)N1CCN(Cc2ccc3c(c2)OCO3)CC1,0.22,-0.94
CN(CCO)c1ccc(/C=N/Nc2nncc3ccccc23)cc1,0.66,-1.1
Cc1ccc(CNC(=O)c2cc(=O)c3ccccc3o2)cc1,0.3,0.08
Cc1cccc(N2CC(C(=O)Nc3ccc(S(=O)(=O)NCC4CCCO4)cc3)CC2=O)c1C (stereo not given),0.03,0.56
S=C(NCc1ccncc1)Nc1cc(Cl)cc(Cl)c1,0.05,-0.51
CCOc1ccc(Nc2nc(N)nc(CSC(=S)N3CCN(c4ccccc4)CC3)n2)cc1,0.6,0.87
O=C(Cc1ccccc1)Nc1nc(-c2cccc([N+](=O)[O-])c2)cs1,1.4,0.95
O=C(O)CC/C(=N\NC(=O)CNC(=O)c1ccc(F)cc1)c1ccccc1,0.5,-1.2
O=C(c1cccc2ccccc12)N1CCC(N2CCN(c3ccccc3)CC2)CC1,0.83,-0.38
COC(=O)CNC(=S)NC(=O)c1ccc(C(C)(C)C)cc1,0.18,1.6
CCC(=O)Nc1nnc(S(=O)(=O)N(CC)c2ccc(Cl)cc2)s1,0.51,-0.56
Cc1ccc([N+](=O)[O-])cc1NC(=O)CSc1n[nH]c(-c2cccnc2)n1,1.7,0
Cn1c(=O)[nH]c(=O)c2c1nc(NCCCO)n2CCCc1ccccc1,0.02,0.09
O=C(Nc1ccnn1C1CCN(CCCc2ccccc2)CC1)c1ccccc1Cl,1.9,-2.3
Cc1nn(CC(=O)Nc2ccc(C#N)cc2)c(C)c1[N+](=O)[O-],0.76,2.2
CC1(C)Cc2c(C#N)c(SCCO)nc(N3CCOCC3)c2CO1,0.93,0.01
CCCS(=O)(=O)N1CCC(CCOc2ccccc2)(C(=O)OCC)CC1,0.58,-1.5
O=C(Nc1ccc2c(c1)OCCO2)C1c2ccccc2C(=O)N2CCc3ccccc3C12 (stereo not given),0.12,0.86
O=C(O)C1=C[C@@H](c2ccc3c(c2)OCO3)C[C@@H](OCc2ccc(CO)cc2)O1,0.1,0
Cc1ccc(NS(=O)(=O)c2ccc3c(c2)NC(=O)C(C)C(=O)N3)c(Cl)c1 (stereo not given),0.1,-1.1
Cc1ccc(S(=O)(=O)N2CCN(C(=O)N3CCOCC3)C2C(C)C)cc1 (stereo not given),1.1,0.56
CC(C)C(=O)N1CCN(c2nc3ccc(Cl)cc3s2)CC1,0.06,-0.88
CC(C)C1CC(=O)NC(SCC(=O)Nc2ccc(Br)cc2)=C1C#N (stereo not given),1.6,-0.79
Cc1ccc[n+](C(C)C(=O)Nc2ccc(C)c(C)c2)c1 (stereo not given),2.3,-1.2
Cc1ccc(NC(=O)c2noc3c2CCCCC3)cc1,0.3,-0.96
O=C(c1ccc(-n2cnnn2)cc1)N1CCOCC1,0.26,-1.2
CCOc1cc2[nH]c(=S)n(C3CCN(Cc4ccccc4)CC3)c(=O)c2cc1OCC,0.16,-0.77
CCCN1CCN(CCCNC(=O)CCNC(=O)Cn2ccc3ccccc3c2=O)CC1,2.3,-0.03
CCC(CC)C(=O)N1CC(=O)Nc2ccc(F)cc2C1c1ccc(F)cc1 (stereo not given),0.24,-1.1
Cc1ccc(-n2c3c(cc(C(=O)NCC(=O)c4ccccc4)c2=O)C(=O)CCC3)cc1,0.06,-0.61
COc1ccc(-n2ncc3c2CC(C)(C)CC3NC(=O)CCn2cncn2)cc1 (stereo not given),0.03,-0.3
O=Cc1cccc2ccc3cccc(C(=O)O)c3c12,0.57,-1.2
OCCN1CCN(CC(O)COCCOc2ccc(Br)cc2)CC1 (stereo not given),1.2,-0.01
NC(=O)CSc1nnc(COc2cccc3ccccc23)o1,1.1,-1.3
OCC#CCSc1nnc(-c2ccncc2)o1,1,-0.2
NC(=O)c1cccnc1,0.59,0.32
O=C(CSc1nnc(-c2ccc(O)cc2)n1-c1ccccc1)CC(=O)Nc1ccccc1,0.91,-0.25
CC(C)c1nnc(NC(=O)C2CCCN2C(=O)Nc2ccccc2)s1 (stereo not given),0.52,-0.23
O=C(NCCN1CCCCC1)Nc1ccc(F)cc1,1.4,-1.4

# The results go on:
SMILES,KCNQ2 pot,KCNQ2 pot baseline
O=C1NC(CCc2ccccc2)C(=O)N1CCOc1ccccc1 (stereo not given),0.21,0.69
COc1ccc(-n2c(C)c(C(C)=O)c3cc(OC(C)=O)ccc32)cc1,0.94,-0.93
COc1cccc(NS(=O)(=O)c2c(C)nc3sccn3c2=O)c1,0.03,0.6
COc1ccccc1C(=O)N1CCC(N2CCN(c3ccccc3)CC2)CC1,0.43,-1.5
NC(=O)c1ccccc1NC(=O)/C=C/c1cccc(Cl)c1,0.36,1.2
CCOC(=O)C1CCN(C2=NC(=O)/C(=C/c3ccccc3OC)S2)CC1,0.19,0.02
O=C(Cc1ccccc1)NCCc1cnc[nH]1,0.34,0.3
COc1ccc(N(CC(=O)NCCC2=CCCCC2)S(C)(=O)=O)cc1,0.59,0.89
COc1ccc(CN2CCN(C3CCC3)CC2CCO)c(C)c1C (stereo not given),0.34,1.3
CCOc1ncccc1C(=O)Nc1ccc(S(=O)(=O)NC2=NCCCCC2)cc1,0.79,1.9
CC(C)=C1SC(N2CCCCC2)=NC1=O,0.17,1.1
O=c1c2ccccc2[nH]c(=S)n1-c1cccc(S(=O)(=O)N2CCCC2)c1,0.79,0.66
CCOc1ccc2nc(SC(CC)C(=O)Nc3cc(C)on3)sc2c1 (stereo not given),0.05,0.07
COc1ccc(N(C(=O)c2cccnc2)S(=O)(=O)c2ccc3c4c(cccc24)C(=O)N3C)cc1,0.15,-0.35
CN1CCC(=NNC(=O)c2ccco2)CC1,0.68,0.33
COC(=O)CSc1ncc(S(=O)(=O)c2ccccc2)c(=O)[nH]1,0.49,0.67
O=C(Nc1ccc2c(c1)CCC2)c1ccc(Cl)nc1,0.54,-0.91
Cn1c(=O)c2c(-c3ccccc3)n(Cc3cccnc3)cc2n(C)c1=O,0.6,-1.1
CS(=O)(=O)Nc1cccc(-c2cnc3ccccc3n2)c1,2.1,-1.3
Cc1onc(-c2c(Cl)cccc2Cl)c1C(N)=O,0.42,-0.43
O=C(CCC1CCCC1)Nc1ccc(C(=O)NCc2cccnc2)cc1,1.7,-0.49
Cn1c(=O)oc2cc(S(=O)(=O)N3CCC(C(=O)Nc4ccc(OC(F)(F)F)cc4)CC3)ccc21,0.92,3
O=c1[nH]cc(S(=O)(=O)N2CCCc3ccccc32)c(=O)[nH]1,0.19,-1.8
